Screening data: PubChem BioAssay, several laboratories
HNF4A DNA FP – change in binding of human HNF4 alpha to DNA | P41235 | HNF4a-FITC DNA binding, fluorescence polarization, 1 h | activity change, % at 10 µM | 360,000 tested, 0.3% active | AID 1224865; in the data active means activity change above about 30%, passing the limit was not always enough;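 further: controls were the assay level and a saturating level of protein; the project sought stronger binding though the title names inhibitors; some compounds called inactive have numbers as strong as hits; positive values seem to mean higher polarization but the record does not say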
Target sequence (P41235 whole entry, looked up): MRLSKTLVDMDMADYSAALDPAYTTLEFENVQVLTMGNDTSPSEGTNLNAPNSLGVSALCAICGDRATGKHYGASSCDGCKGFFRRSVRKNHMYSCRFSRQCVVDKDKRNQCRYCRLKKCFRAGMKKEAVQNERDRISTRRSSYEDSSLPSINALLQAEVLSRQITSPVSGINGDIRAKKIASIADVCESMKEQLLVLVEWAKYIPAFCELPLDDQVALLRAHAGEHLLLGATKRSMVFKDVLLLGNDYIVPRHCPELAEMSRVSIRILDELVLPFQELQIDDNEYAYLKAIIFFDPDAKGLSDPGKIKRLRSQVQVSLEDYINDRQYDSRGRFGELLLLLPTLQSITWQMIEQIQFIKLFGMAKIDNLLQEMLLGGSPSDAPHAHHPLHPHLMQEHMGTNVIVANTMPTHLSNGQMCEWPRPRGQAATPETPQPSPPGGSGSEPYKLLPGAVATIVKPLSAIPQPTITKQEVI
Ecoli growth – blocks Escherichia coli growth; OD600, 23 h; hits give low values; OD600 absorbance (concentration not given with the values); 330,000 tested, 0.21% active;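 active means OD600 absorbance below the run mean of sample wells minus 3.6 SD, in any replicate, cut at about 0.56 in these data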;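 further: stock transfer was 300 nL into about 60 µL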
FGF22 binding – FGF22 (human) thermal shift binding; Q9HCT0; recombinant FGF22 thermal shift, SYPRO orange fluorescence; percent of sucrose octasulfate shift, DMSO zero; calls only at 9.99 µM; 340,000 tested, 1.5% active; AID 651658;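 active means melting point raised past a set limit in the mean and every replicate; inconclusive means no clear call; three in four hits are not shown here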
AF4-AF9 inh – inhibitors of human MLL-AF4/AF9 interaction; P42568; AID 651704; inhibition, % at 10 µM; AlphaScreen, biotin-AF4 peptide binding to FLAG-AF9; 350,000 tested, 0.47% active;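 active means every replicate reaching a set inhibition limit, whatever the replicate mean, cut at about 25% in these data; inconclusive means mean inhibition reaches that limit but some replicates miss it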;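 further: 0% = plate neutral control median and 100% = total signal loss; the record names both 10 and 1 µM as test concentration; the first replicate is given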
Target sequence (P42568 whole entry, looked up): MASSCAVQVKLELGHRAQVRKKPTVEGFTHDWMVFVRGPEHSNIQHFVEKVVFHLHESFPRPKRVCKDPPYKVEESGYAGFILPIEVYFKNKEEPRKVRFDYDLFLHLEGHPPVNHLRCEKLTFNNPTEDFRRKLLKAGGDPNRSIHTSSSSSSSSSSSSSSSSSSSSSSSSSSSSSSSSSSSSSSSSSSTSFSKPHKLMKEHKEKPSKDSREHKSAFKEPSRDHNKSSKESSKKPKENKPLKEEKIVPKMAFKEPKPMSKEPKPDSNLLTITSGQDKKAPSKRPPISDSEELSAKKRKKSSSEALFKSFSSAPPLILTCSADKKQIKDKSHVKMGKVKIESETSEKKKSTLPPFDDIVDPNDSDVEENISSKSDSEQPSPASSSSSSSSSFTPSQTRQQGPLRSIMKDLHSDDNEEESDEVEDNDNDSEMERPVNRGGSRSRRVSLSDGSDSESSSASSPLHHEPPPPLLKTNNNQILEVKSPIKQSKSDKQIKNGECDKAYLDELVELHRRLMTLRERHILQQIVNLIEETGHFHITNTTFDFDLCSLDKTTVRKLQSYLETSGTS
RanGTP-Impb inh – disruptors of Ran-importin-beta complex formation – biochemical, FRET, CFP-Ran, YFP-importin-beta, homogeneous, primary screen; cell-free CFP-Ran/YFP-importin-beta FRET ratio; inhibition, % (no concentration beside the values); 300,000 tested, 1.1% active;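 active means most replicates above 15%; inconclusive means exactly half above 15%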;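 further: 0% = DMSO wells and 100% = Ran loaded with GDP instead of GTP; wells of about 40 µL received 100 nL stock; the first replicate is given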
UCH37 DUB inh – human UCH37 deubiquitinating enzyme inhibition | Q9Y5K5 | purified proteasome/UCH37, Ub-AMC cleavage fluorescence | inhibition, % (test concentration not listed) | 330,000 tested, 0.33% active | AID 588478;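 active means mean of two replicates above 20%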;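 further: 0% = compound-free wells with enzyme and 100% = wells lacking proteasome; stock transfer was 100 nL into about 20 µL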
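Test system – human UCH37 enzyme supplied as purified proteasome complex · Incubation – 30 min preincubation with enzyme, 25 min cleavage at room temperature · Detection – AMC fluorescence from Ub-AMC cleavage, excitation 355 nm, emission 460 nm · Benchmarks – no-proteasome wells (full inhibition) and compound-free wells (no inhibition)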
Vif A3G – HIV-1 Vif–A3G interaction blockers – biochemical, TR-FRET, GST-Vif 1-94, biotin-A3G peptide, dose response retest, primary screen (AID 1117319) | 260,000 tested, 0.57% active | inhibition, %; hits with a dose series show IC50 in µM | TR-FRET GST-Vif / biotin-A3G peptide binding; higher % means a stronger effect; test concentration not given here; strong numbers were not always called active;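 active means above the screen mean plus three standard deviations and confirmed in dose response; inconclusive means results disagree or hit not tested in dose response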;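 further: Vif residues 1-94 fused to GST binding biotinylated APOBEC3G peptide 110-148; 0% = full assay without inhibitor and 100% = GST in place of GST-Vif; retest series ran down from 100 µM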
* hit, by the source's call; i = inactive; ? = inconclusive; · = not tested or not shown; + = active, no number; & = joins results of further samples. These rows are one share of the data, so the mix of outcomes need not match the whole.

HNF4A DNA FP,Ecoli growth,FGF22 binding,Molecule,AF4-AF9 inh,RanGTP-Impb inh,UCH37 DUB inh,Vif A3G
-0.8,0.71,i,CCOc1ccc(/C=C2\SC(=O)N(CCNC(=O)CN3C(=O)NC4(CCCC4)C3=O)C2=O)cc1OC,3.2,-0.1,4.4,·
1.0,0.68,i,COC(=O)c1ccccc1NC(=O)COc1ccc(S(=O)(=O)NC(C)C)cc1,0.0,2.8,3.1,2%
6.6,0.72,i,COC(=O)c1cc(Cl)c(NC(=O)C(C)C)cc1OC,-3.3,1.1,2.9,-8%
-2.7,0.72,·,CC(C)CC(c1nnnn1CCc1ccccc1)N1CCC(C(N)=O)CC1 (stereo unspecified),·,6.8,1.6,4%
-0.2,0.69,i,CC(C)N(C(=O)COC(=O)c1cccc(N(C)C)c1)c1ccccc1,3.2,-1.9,-46,-1%
0.8,0.69,·,CCSc1nnc2c(n1)OC=Nc1ccc(Br)cc1-2,·,7.9,9.0,0%
1.2,0.62,i,O=C1NCCN/C1=C\C(=O)c1ccc(Br)cc1,2.2,-1.7,11,-9%
-0.1,0.73,i,COc1ccc(Cl)cc1NC(=O)Cn1nnc(C(=O)NCCc2ccc(OC)c(OC)c2)c1N,-4.3,0.3,0.7,·
-1.1,0.72,·,CN(CC(=O)Nc1ccc(F)c(F)c1F)C(=O)/C=C/c1ccc(Cl)cc1,·,0.8,2.1,16%
-1.7,0.68,i,CC(=O)c1ccc(OCc2cc(C(=O)N3CCC[C@H]3CO)no2)cc1,8.4,1.7,3.1,1%
-0.5,0.68,i,COC(CN(C(=O)CCl)C(C(=O)NC1CCCCC1)c1ccc(Cl)cc1)OC (stereo unspecified),2.0,-0.4,0.9,·
-2.4,0.66,·,O=C1CN(C(=O)c2ccccc2F)c2ccccc2N1,·,-3.0,6.1,12%
1.2,0.65,i,O=C(C=Cc1ccco1)N1CCOCC1,0.8,·,2.7,2%
1.4,0.8,i,Cc1ccc2ccc(C(Nc3ccccn3)c3ccccc3)c(O)c2n1 (stereo unspecified),?,0.1,4.3,7%
-3.9,0.65,i,COc1ccc(S(=O)(=O)N2CCOCC2)cc1NC(=O)c1ccc2c(c1)OCO2,0.0,·,2.1,1%
0.3,·,·,CC(C)C(=O)Nc1ccc(C(=O)N/N=C/C2CC3C=CC2C3)cc1 (stereo unspecified),-1.5,-5.2,·,·
1.3,·,i,COc1ccc(C(=O)NC2CC(C)(C)NC(C)(C)C2)cc1S(=O)(=O)N1CCOCC1,-0.1,·,·,3%
-2.9,0.7,i,Cc1cccc(C(C)C)c1NC(=O)CN1C(=O)NC(Cc2ccccc2)C1=O (stereo unspecified),-14,3.8,1.0,-8%
-2.6,0.74,·,O=C(CSCc1cnn(-c2ccccc2)c1-n1cccc1)NCc1ccc2c(c1)OCO2,·,-2.9,0.9,2%&11%
-0.4,0.66,i,Cc1ccc(NC(=O)CNCCCN2CCOCC2)cc1S(=O)(=O)N1CCCCC1,0.7,3.3,2.8,-5%
-2.2,0.79,·,O=C(Nc1nc(-c2cccs2)cs1)c1cccc(S(=O)(=O)N2CCCCCC2)c1,·,0.5,-0.2,14%
1.5,0.68,i,COc1cccc(N2C(=NC(=O)C3CCCCC3)SC3CS(=O)(=O)CC32)c1 (stereo unspecified),-21,-0.8,-0.5,-3%
2.3,·,i,Clc1ccccc1-c1nc(/C=N/N2CCOCC2)c2ccccn12,15,5.2,·,12%
0.7,0.66,i,CS(=O)(=O)N1CCC(C(=O)Nc2cccc(Br)c2)CC1,1.9,-4.3,0.7,-16%
3.0,0.72,·,COCCNC(=O)CSc1nc2ccccc2c2nc(C)nn12,·,-5.0,5.3,-3%
2.7,0.7,i,Cc1ccc2nc(CNC(=O)C3CCC(=O)N(Cc4ccccc4F)C3)cn2c1 (stereo unspecified),-7.6,-2.5,-1.2,·
-4.2,·,i,CCc1n[nH]c(=S)n1/N=C/c1c(O)ccc2ccccc12,-12,-3.4,·,5%
0.6,·,i,CCc1nc2c(OCc3ccc(F)cc3)cccn2c1N(C)C(=O)CC(C)C,1.5,·,·,·
-5.1,0.68,i,CNC(=O)c1cc(S(=O)(=O)Nc2ccc(C)cc2C)ccc1C,1.2,-2.0,1.7,0%
-6.1,0.61,i,CCC(C)(C)c1ccc(Oc2cccc(C(=O)O)c2)cc1,-1.9,2.6,-0.9,-5%
0.1,0.69,i,COc1cccc(NC(=O)CN(C)C(=O)Cc2ccc3c(c2)CCC3)c1,-0.1,·,-3.8,-9%
-2.8,0.65,i,COc1ccccc1CNC(=O)C1CCN(S(=O)(=O)c2ccc3nc4c(c(C(=O)O)c3c2)CCCC4)CC1,-2.0,1.8,-0.3,·
-0.3,·,i,COc1cc(-c2coc3c(C(=O)NCc4ccc(N(C)C)cc4)cccc23)ccc1O,9.1,·,·,·
1.5,0.68,i,Cc1ccc(/C=C/C(=O)c2ccccc2O)cc1,0.2,0.9,3.8,-2%
3.8,·,i,O=C(CSc1ccc2ccccc2n1)N/N=C/c1ccc(O)cc1,2.8,-2.9,·,·
1.9,0.69,·,CCOC(=O)c1cc(C(=O)c2cccs2)n2ccc(C(C)=O)cc12,·,2.0,-4.6,-15%
0.7,·,i,COc1ccc(C2/C=C\CN(CC(C)(C)C)CC(=O)N2Cc2ccc(F)cc2)cc1 (stereo unspecified),0.4,-2.4,4.9,·
-3.0,0.64,i,Cc1ccc(NC(=O)COC(=O)c2ccc([N+](=O)[O-])o2)cc1S(=O)(=O)N1CCCCCC1,-1.7,2.3,5.7,1%
-2.7,0.67,i,O=C(COC(=O)COc1ccc(Cl)cc1)NC1CCCCCC1,-7.2,·,3.5,-4%
20,0.67,+,CCN(CC)CCNC(=O)c1ccc(NC(=O)/C=C/c2ccc3ccccc3n2)cc1,12,1.6,6.8,-6%

Reformatted: results already given.
structure	HNF4A DNA FP	Ecoli growth	FGF22 binding	AF4-AF9 inh	RanGTP-Impb inh	UCH37 DUB inh	Vif A3G
COc1ccccc1CNC(=O)C1CCN(S(=O)(=O)c2ccc3nc4c(c(C(=O)O)c3c2)CCCC4)CC1	-2.8	0.65	i	-2.0	1.8	-0.3	·
CCC(C)(C)c1ccc(Oc2cccc(C(=O)O)c2)cc1	-6.1	0.61	i	-1.9	2.6	-0.9	-5%

The results go on:
HNF4A DNA FP,Ecoli growth,FGF22 binding,Molecule,AF4-AF9 inh,RanGTP-Impb inh,UCH37 DUB inh,Vif A3G
-1.2,0.61,·,Cc1ccccc1CSCCNC(=O)CSCc1ccc([N+](=O)[O-])cc1,·,-4.8,2.6,-1%
-1.0,0.73,i,CC(C)(C)c1nnc(NC(=O)c2cccnc2)s1,-2.5,4.5,3.1,9%
4.2,0.72,·,O=C(NCC1CCCO1)C(c1cccs1)N(Cc1ccccc1Cl)C(=O)c1ccc(-c2ccccc2)[nH]1 (stereo unspecified),·,3.9,2.8,·
-2.3,0.66,i,O=[N+]([O-])c1ccc(SCCc2ccccn2)cc1,-1.9,0.9,7.8,·
4.5,0.67,i,COc1ccc(-c2cn(Cc3ccc4ccccc4c3)nn2)cc1,?,-2.2,3.4,·
-4.6,0.66,·,CCOC(=O)N1CCN(C(=O)c2ccc(OC)c(S(=O)(=O)N3CCOCC3)c2)CC1,-1.3,?,-0.7,-10%
-0.9,0.66,i,O=C(CNC(=O)N1CC(=O)Nc2ccccc21)NCc1ccccc1Cl,2.4,7.4,0.5,·
-0.3,·,i,COc1cc(/C=N/NC(=O)COc2c(C)cc([N+](=O)[O-])cc2C)ccc1OC(=O)c1ccccc1,3.5,-5.4,·,-2%
-2.6,0.71,i,O=C(NCC1CCCO1)/C(=C\c1ccco1)NC(=O)c1ccc(Cl)cc1 (stereo unspecified),1.4,1.1,2.2,5%
1.5,·,i,CCN1C(=O)N[C@@H](c2cccc(C(F)(F)F)c2)[C@H](C(C)=O)[C@H]1C,2.7,0.9,3.7,·
0.1,·,i,CCOC(=O)/C(=N\Nc1ncnc2ccccc12)c1ccc(C)cc1,42*,5.2,·,·
0.7,0.67,·,CSc1ncccc1C(=O)NCCc1ccc(Cl)cc1,-1.0,-0.3,0.7,-4%
-1.9,0.65,i,Cc1ccc(S(=O)(=O)Nc2cc(=O)[nH]c3c2CCC3)cc1,-1.0,0.6,2.4,-5%
-0.8,0.7,·,Cc1ccc(OCC(=O)NCc2ccco2)cc1C,·,-2.8,-1.4,9%
-1.3,0.7,·,COc1ccc(-n2nnnc2SCC(=O)N2C(C)CCCC2C)c(OC)c1 (stereo unspecified),·,-2.8,1.0,26%
-0.7,0.68,i,COc1ccc(Cl)cc1N(CC(=O)Nc1cccc(SC)c1)S(C)(=O)=O,5.6,-3.7,1.5,4%
4.5,0.68,i,CC(NS(=O)(=O)c1ccc(Cl)cc1)C(=O)OCC(=O)Nc1ccc(N(C)C)cc1 (stereo unspecified),2.4,·,1.7,-1%
-2.6,0.72,·,c1ccc(OCc2nc(-c3ccccc3)no2)cc1,·,-1.4,-2.7,-2%
1.0,·,i,CCCCN(C)c1c(C)nc2ccc(C(=O)NCc3ccc(OC)cc3)cn12,-4.0,·,·,·
23,·,·,O=C(COc1ccc(/C=N/NC(=O)c2cc3ccccc3o2)cc1Br)Nc1ccccc1,·,1.9,·,-2%
-0.3,0.71,i,COc1cccc(/C=C2\CC(C)Cc3c2nc2ccccc2c3C(=O)O)c1OC (stereo unspecified),0.9,-1.4,5.8,·
1.7,0.68,·,CC1=C(C(=O)Nc2ccccc2F)C(c2ccsc2)C2=C(CC(c3ccccc3)CC2=O)N1 (stereo unspecified),·,-2.2,-101,1µM*
0.2,0.69,i,O=C(CNC(=O)C1CCCCC1)OCC(=O)c1cccc(Cl)c1,-1.5,·,0.3,·
-6.7,0.63,i,Cc1ccccc1-n1c(=O)n(CCc2ccccc2)c(=O)c2[nH]cnc21,-5.1,2.5,6.1,·
-0.2,0.73,·,O=C(O)C1CCCCC1C(=O)Nc1ccccc1C(=O)N1CCN(c2ccc(F)cc2)CC1 (stereo unspecified),·,2.4,2.0,0%
1.2,0.69,i,Cc1ccc(S(=O)(=O)N(C)CCCC(=O)Nc2ccc(C)cc2C)cc1,0.1,-5.3,6.3,-13%
0.3,0.69,·,N#C/C(=C\c1ccco1)C(=O)NCc1ccccc1,·,-0.2,9.1,-7%
0.0,0.69,i,COc1cc2cc(C(=O)N(C)Cc3ccccc3)[nH]c2cc1OC,-4.1,-4.5,-18,-25%
2.8,0.68,i,CCCc1cc(=O)[nH]c2nnc(SCC(=O)Nc3ccc(C(C)=O)cc3)n12,-0.4,-3.9,1.9,3%
3.3,·,i,CCCCCCn1c(=O)n2n(c1=O)C[C@]1(OC(=O)NCC3CCCCC3)CN(S(=O)(=O)c3ccc(C)cc3)C[C@]1(O)C2,-2.7,·,·,1%
